VDR inh: Inhibitors of the vitamin D receptor (VDR): qHTS | AID 504847, 2011 | 0.93% of 400,000 active | VDR-SRC2-3 peptide fluorescence polarization, 2 h | Potency, µM, inactives show max response, negative = inhibition, hits mostly inhibitors; active = well fitted inhibition curve with a large enough effect; inconclusive = small, poorly fitted or top-dose-only effect, or another doubt; inactive = no such curve, though single readings can be large or run the other way; note: series mostly up to about 120 µM
Target sequence (P11473 whole entry, looked up): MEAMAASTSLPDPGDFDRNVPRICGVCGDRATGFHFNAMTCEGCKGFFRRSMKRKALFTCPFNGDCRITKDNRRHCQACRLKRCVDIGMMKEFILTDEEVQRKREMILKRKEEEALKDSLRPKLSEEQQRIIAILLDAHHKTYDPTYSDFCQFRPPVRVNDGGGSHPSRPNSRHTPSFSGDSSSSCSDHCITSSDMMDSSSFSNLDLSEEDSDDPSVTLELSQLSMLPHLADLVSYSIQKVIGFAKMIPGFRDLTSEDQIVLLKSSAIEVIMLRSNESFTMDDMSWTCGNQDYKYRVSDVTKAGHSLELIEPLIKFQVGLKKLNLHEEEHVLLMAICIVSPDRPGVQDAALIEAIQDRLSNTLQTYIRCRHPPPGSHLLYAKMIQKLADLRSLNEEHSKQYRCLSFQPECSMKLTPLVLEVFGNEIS
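Inhibition of the VDR/SRC2-3 peptide interaction is quantified by fluorescence polarization. Compounds (23 nl, pintool) incubate with the reagents for 2 hours at ambient room temperature.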
Starred values were filed as active, the others as inactive; ? = inconclusive; & = joins results of further samples. % is set by controls: 0 for no effect and ±100 for the full control effect; potency is the fitted concentration of half-maximal effect. A portion of the library. The share of hits here may be higher or lower than overall.

SMILES	VDR inh
COc1ccc(OC)c(-c2noc(N3CCN(c4cccc(C(F)(F)F)c4)CC3)n2)c1	4.6%
O=C(c1cccs1)N(Cc1nc2sc3c(c2c(=O)[nH]1)CCCC3)C1CCCC1	1.9%
Cc1ccc(C)c(Oc2ncnc(N)c2[N+](=O)[O-])c1	?
CCC(CC)c1nnc(NC(=O)c2cccc(S(=O)(=O)N3CCc4ccccc43)c2)s1	8.8%
Cc1nn(-c2ccccc2)c2c1N(CC(=O)N1CCN(c3ccccc3F)CC1)C(=O)CS2	2.9%
COc1ccc(Cn2c(=O)c3[nH]cnc3n(-c3ccccc3C)c2=O)cc1	3.1%
O=c1cc(CCl)[nH]c2nc3ccccc3n12	-3.9%
O=c1/c(=C/c2cccc3ccccc23)sc2ncnn12	?
CCOc1ccc(C(=O)c2cn(Cc3ccc(Cl)cc3)c3cc(OC)c(OC)cc3c2=O)cc1	-7.5%
CCN1CCN(c2nnc(-c3ccc(C)cc3)c3ccccc23)CC1	1.7%
O=[N+]([O-])c1cc(S(=O)(=O)N2CCOCC2)ccc1N1CCCC1	0.9%
COc1ccccc1NC(=O)c1cc(S(=O)(=O)NC2CCCC2)ccc1F	-5.3%
COc1cc(OC)c(NC(=O)c2cc(C(C)=O)n3ccccc23)cc1Cl	13.2%
COc1ccc(-c2nnc(Sc3nc4ccccc4o3)c3ccccc23)cc1	-16.8%
CCNC(=O)N(CC)C[C@H]1N[C@@](C)(C(=O)OC)[C@H]2C(=O)N(C)C(=O)[C@@H]12	2.0%
O=C(COC(=O)CCC1CCCC1)Nc1ccccc1OC(F)F	0.6%
CN(C)S(=O)(=O)c1ccc2c(c1)C(CC(=O)O)NC2=O (stereo not drawn)	-4.7%
NC(=O)c1ccc(N2CCN(c3ncc(C(F)(F)F)cc3Cl)CC2)cc1	-12.4%
O=C(C1CC(=O)N(c2ccc(Br)cc2)C1)N1CCCC1 (stereo not drawn)	4.9%
Cc1ccc(CCC(=O)Nc2ccc([N+](=O)[O-])cc2)o1	-28.6%
CC(C)OCCCNC(=O)c1ccc(CN2CCc3ccccc3C2)cc1	-27.4%
CC1CCc2c(C(=O)NCc3ccco3)csc2C1 (stereo not drawn)	1.3%
C[C@H](CO)NC(=O)[C@@H]1C[C@H]1[C@@H](NP(=O)(c1ccccc1)c1ccccc1)c1ccccc1	-27.4%
NC(=O)c1ccc2c(=O)c(O)c(-c3cc(Cl)c(N)c(Cl)c3)[nH]c2c1	-23.0%
O=C(c1cn(-c2ccccc2)nc1-c1ccccc1)N1CCOCC1	-20.4%

(continued)
SMILES	VDR inh
O=C(O)c1ccc(NC(=O)c2ccc(Cl)c(S(=O)(=O)N3CCCCCC3)c2)cc1	4.5%
Cc1noc(C)c1S(=O)(=O)N1CCCC(C(=O)NCCC2=CCCCC2)C1 (stereo not drawn)	-1.7%
C=C[C@H]1[C@H](O[C@@H]2O[C@H](CO)[C@@H](O)[C@H](O)[C@H]2O)OC=C2C(=O)OCC[C@]21O	-14.7%
CCOC(=O)c1ccc(NC(=S)NCCc2ccccc2F)cc1	7.7%
O=C(COC(=O)/C=C/c1ccc(OC(F)F)cc1)Nc1ccc(N2CCOCC2)cc1	-0.3%
C=CCN1C=C2C(=O)C(C)(OC(=O)C3CCCC3)C(=O)C=C2C=C1c1ccsc1 (stereo not drawn)	0.3%
Nc1nnc(SCC(=O)OCC(=O)Nc2ccccc2)s1	22.5%
COc1ccc2sc(C)nc2c1NC(C)=O	6.1%
Fc1cccc(F)c1-n1c(CN2CCCCC2)csc1=S	16.2%
Cn1ccsc1=NC(=O)c1cc(S(=O)(=O)N2CCOCC2)ccc1F	-18.0%
Cc1cccc(NC(=O)Cn2nc(-c3ccccc3)c3cnc4ccccc4c32)c1	7.4%
CCN1CCCC1CNC(=O)C(=O)NC(C)c1ccccc1 (stereo not drawn)	14.6%
COc1ccc(NC(=O)c2ccc3c(=O)n(-c4ccc(OC)cc4OC)c(=S)[nH]c3c2)cc1	-8.4%
COC(=O)c1cc(C(=O)N2CCN(c3cccc(Cl)c3)CC2)cc([N+](=O)[O-])c1	8.3%
CC(=O)/C(C[N+]1(C)CCCCC1)=N\O	-7.8%
COC(=O)Cc1[nH]c(=S)[nH]c1C(=O)OC	-1.3%
N#C/C(=C/c1ccc(Br)s1)C(=O)NCCc1c[nH]c2ccccc12	8.5%
COCCN1Cc2cccc(C(=O)Nc3c(C)cc(C)cc3C)c2C1=O	19.7%
CN(C(=O)c1cccc(NC(=O)Cc2cccc([N+](=O)[O-])c2)c1)C1CCC1	9.8%
CCC(C)(NC(=O)c1cccc(N2C(=O)CSC2c2ccccc2)c1)C(=O)Nc1ccccc1C (stereo not drawn)	-3.1%
COc1ccc(/C=C(\C#N)C(=O)NCc2ccccc2)cc1O	-13.7%
COc1cc(C(=O)NCc2cccs2)ccc1OCc1c(C)noc1C	-5.6%
CC(=O)c1cccc(OCC(=O)N(Cc2ccco2)c2c(N)n(Cc3ccccc3)c(=O)[nH]c2=O)c1	-22.4%
CCOc1cc(/C=N/NC(=O)Cn2nc([N+](=O)[O-])cc2C)ccc1OCc1ccc(F)cc1	16.4%
Cc1ccc(-c2n[nH]c(=O)c3ccccc23)cc1S(=O)(=O)N(C)CCO	1.5%

Three entries already listed, sorted by their value in VDR inh, low to high.
SMILES	VDR inh
C=C[C@H]1[C@H](O[C@@H]2O[C@H](CO)[C@@H](O)[C@H](O)[C@H]2O)OC=C2C(=O)OCC[C@]21O	-14.7%
COc1ccc(NC(=O)c2ccc3c(=O)n(-c4ccc(OC)cc4OC)c(=S)[nH]c3c2)cc1	-8.4%
C=CCN1C=C2C(=O)C(C)(OC(=O)C3CCCC3)C(=O)C=C2C=C1c1ccsc1 (stereo not drawn)	0.3%

Following part.
SMILES	VDR inh
O=C(Oc1ccccc1)N1CCC2(CC1)CCN(c1ccncc1)CC2	-0.6%
COc1ccc(NC(=O)C/C(C)=N/NC(=O)CCc2ccccc2)c(OC)c1	9.7%
COc1ccccc1NC(=O)C(C)NS(=O)(=O)c1ccccc1 (stereo not drawn)	10.7%
CSc1nc2c(c(=O)[nH]1)C(c1cccc(Br)c1)CC(=O)N2 (stereo not drawn)	-13.7%
CCc1cccc(NC(=O)Nc2cccs2)c1	-3.5%
COC(C[C@H](O)C[C@H](O)COCc1ccccc1)OC	-0.2%
Cn1c(=O)n(C)c2cc(S(=O)(=O)Nc3ccccc3O)ccc21	10.2%
CC(=O)N1c2ccc(S(=O)(=O)NCCC(=O)Nc3ccc(C)c(F)c3)cc2CC1C (stereo not drawn)	-0.9%
C=CCNC(=O)C1CC(c2cccc(OC)c2)=NO1 (stereo not drawn)	-8.2%
COc1ccc(N2CSC3=C(C#N)C(c4ccc(OC)c(OC)c4)CC(=O)N3C2)c(OC)c1 (stereo not drawn)	31.6µM*
COc1cc(NC(=O)CSc2c3c(nc4ccccc24)CCC3)cc(OC)c1OC	-16.1%&-13.2%
O=C(COC(=O)COc1ccc(Cl)cc1)NCCNC(=O)COC(=O)COc1ccc(Cl)cc1	-1.1%
CC(=O)/C=C/c1ccccc1O	-9.9%
CC(C)(C)c1cc(Br)c(O)c(N=Nc2ccc(S(=O)(=O)N3CCOCC3)cc2)c1	19.4%
CCn1c(-c2ccncc2)n[nH]c1=S	-7.4%
CCn1c(SCC(=O)Nc2cc(F)ccc2C)nnc1-c1ccccc1O	11.2%
CCC(=O)N1CCc2cc(Br)c(S(=O)(=O)NCCN3CCCCC3CC)cc21 (stereo not drawn)	-8.2%
COc1cc(OC)cc(C(=O)N2CCC(N3CCN(c4ccccc4OC)CC3)CC2)c1	-17.4%
CC(C)(C)NC(=O)COC(=O)/C=C/c1ccc(F)cc1	-15.7%
COc1cccc(NC(=O)CSc2nc3n[nH]c(C)c3c(=N)n2-c2cccc(OC)c2)c1	19.0%
COc1ccc(N2CCN(C(=S)NC(C)c3ccccc3)CC2)cc1 (stereo not drawn)	-2.9%
COc1ccc(C2CC(c3ccc(OC)cc3)n3nc(NC(=O)c4cccs4)nc3N2)cc1 (stereo not drawn)	1.9%
COc1cc(C)c(Cl)cc1S(=O)(=O)n1cnc2ccccc21	1.2%
COc1ccc(N2CCN(C(c3ccccc3F)c3sc4nc(-c5ccco5)nn4c3O)CC2)cc1 (stereo not drawn)	4.6%
c1cnc(Nc2nc(-c3ccc4ccccc4c3)cs2)nc1	-9.2%

(list continues)
SMILES	VDR inh
COc1cccc(CNC(=O)C2=C(C)C(=O)OC23CCC(C)CC3)c1 (stereo not drawn)	-12.8%
O=C(CSc1nc2ccccc2s1)N1CCCCC1	-0.3%
O=C(c1cccnc1)N1CCN(Cc2cccc(F)c2)CC1	-2.0%
Cc1ccc(SCC(=O)Nc2ccc(N3CCOCC3)cc2)cc1C	-1.4%
Cn1cccc1/C=N/n1c(-c2ccco2)n[nH]c1=S	19.8%
Cc1cccc(C)c1NC(=O)CNC(=O)c1ccccc1	8.9%
CCc1nc2ccccc2c(C(=O)OCCN2C(=O)c3ccccc3C2=O)c1C	-10.2%
CCOC(=O)c1c(-c2ccccc2)oc2ccc(OCc3ccc(C)cc3)cc12	-17.7%
O=C(O)c1cnnc2ccccc12	-3.7%
Cc1ccc2oc(C(=O)Nc3c(C(=O)Nc4cccc(Cl)c4)oc4ccccc34)cc(=O)c2c1	7.4%
CC(=O)N1c2ccccc2C(=O)C1N1CCN(c2ccc(F)cc2)CC1 (stereo not drawn)	6.5%
CCN(C(=O)c1cc(S(=O)(=O)N2CCCC2)ccc1C)C1CCS(=O)(=O)C1 (stereo not drawn)	-17.4%
O=C1C=C(NNC(=O)c2ccncc2)CC(c2ccccc2)C1 (stereo not drawn)	-1.5%
O=C(c1ccc(N2CCCC2)c([N+](=O)[O-])c1)N1CCN(c2ccccn2)CC1	7.1%
CSCC[C@H](NC(=O)[C@@H]1CCCN1C(=O)CNC(=O)[C@H](CCCCN)NC(=O)[C@H](Cc1cnc[nH]1)NC(=O)[C@H](CO)NC(=O)[C@H](CC(C)C)NC(=O)[C@H](CCCN=C(N)N)NC(=O)[C@@H]1CCCN1C(=O)[C@H](CCCN=C(N)N)NC(=O)[C@@H]1CCC(=O)N1)C(=O)N1CCC[C@H]1C(=O)N[C@@H](Cc1ccccc1)C(=O)O	12.4%
O=C(c1ccc(Cl)c(Cl)c1)N1CCC(=O)N(C(COCc2ccc(Cl)cc2)Cc2ccccc2)CC1 (stereo not drawn)	-18.5%
CCN(CC)c1c([N+](=O)[O-])c(=O)oc2ccccc12	-1.8%
CC1CCN(C(=O)CCc2nnc(-c3ccccc3)o2)CC1	0.2%
O=C(/C=C/c1cc([N+](=O)[O-])ccc1OC(F)F)Nc1cccc2ccccc12	-0.3%
O=C(CSc1nnc(-c2ccc(Cl)cc2)o1)NNC(=O)c1ccncc1	2.6%
O=[N+]([O-])c1ccc(Cl)c(S(=O)(=O)/N=C(/Sc2ccc(Br)cc2)c2ccccc2)c1	?
COc1ccccc1NC(=O)CN(C)S(=O)(=O)c1ccc(F)cc1	-9.5%
CCN(CC)c1ccc(/C=N/NC(=O)CN2CCCc3ccccc32)cc1	-10.4%
CCn1c(=O)c2sccc2n(Cc2cc(C(=O)OC)ccc2OC)c1=O	-16.0%
O=C(NCc1ccccc1)N1CCC(CO)(Cc2cccc(F)c2)CC1	-10.8%

A section from further up:
SMILES	VDR inh
Cc1ccc2oc(C(=O)Nc3c(C(=O)Nc4cccc(Cl)c4)oc4ccccc34)cc(=O)c2c1	7.4%
CC(=O)N1c2ccccc2C(=O)C1N1CCN(c2ccc(F)cc2)CC1 (stereo not drawn)	6.5%
CCN(C(=O)c1cc(S(=O)(=O)N2CCCC2)ccc1C)C1CCS(=O)(=O)C1 (stereo not drawn)	-17.4%

Following part.
SMILES	VDR inh
CCOc1ccc(N2CC(C(=O)NCC(=O)Nc3ccc(F)c(F)c3F)CC2=O)cc1 (stereo not drawn)	22.4%
CCC(C)(C(=O)NC1CCCC1)N(C(=O)CC1NC(=O)NC1=O)c1c(C)n(C)n(-c2ccccc2)c1=O (stereo not drawn)	2.9%
Cn1cccc1Cc1nnc(SCC(=O)NCC2CCCO2)n1CCc1ccccc1 (stereo not drawn)	-1.1%
COc1ccc(NS(=O)(=O)c2cc(C)ccc2C)cc1	-1.6%
Cc1ccc(C)n1CCN1CCN(S(=O)(=O)c2ccc(F)cc2F)CC1	-2.8%
COc1ccccc1NC(=O)c1ccc(Cl)c(S(=O)(=O)NCc2ccco2)c1	6.7%
Cc1ccc2[nH]c(=O)c(CN(CCCN3CCOCC3)C(=O)Nc3cccc(Cl)c3)cc2c1	-16.6%
COc1ccccc1C(=O)N(Cc1ccccc1)c1ccc(C)cc1	-15.9%
CCOc1ccc(CN(C)C(=O)CN2C(=O)NC3(CCCc4ccccc43)C2=O)cc1 (stereo not drawn)	6.1%
CCOc1ccc(OCCCCn2ccnc2)cc1	-1.7%
Cc1cc(C(=O)CSc2nncs2)c(C)n1-c1c(C)n(C)n(-c2ccccc2)c1=O	4.0%
N#CCCN(Cc1ccccc1)C(=O)c1nccnc1C(=O)O	-8.1%
Cc1cccc(Cc2ccc(Cl)nn2)c1	-6.7%
COc1ccc(CCNC(=O)Cn2ccc3cc(S(=O)(=O)N4CCCC4)ccc32)cc1OC	-6.9%
C=CCNc1nc(-c2ccc(O)c(C(N)=O)c2)cs1	?
Cc1c(Cl)c([N+](=O)[O-])nn1CCCC(=O)Nc1cccc(Cl)c1Cl	-0.9%
CCn1cc(C(=O)NCC2CCCO2)c(=O)c2cc(S(=O)(=O)N(C)C)ccc21 (stereo not drawn)	-8.9%
N#Cc1ccc(C(=O)OCC(=O)Nc2cccc(S(=O)(=O)N3CCCCC3)c2)cc1	16.2%
COc1ccc(C(=O)N2CCC(n3nccc3NC(=O)C3CC3)CC2)cc1F	-15.3%

Sorted by number of heavy atoms (lowest first): some entries from above.
SMILES	VDR inh
CCOc1ccc(OCCCCn2ccnc2)cc1	-1.7%
N#CCCN(Cc1ccccc1)C(=O)c1nccnc1C(=O)O	-8.1%
Cc1c(Cl)c([N+](=O)[O-])nn1CCCC(=O)Nc1cccc(Cl)c1Cl	-0.9%
COc1ccccc1NC(=O)c1ccc(Cl)c(S(=O)(=O)NCc2ccco2)c1	6.7%
COc1ccc(CCNC(=O)Cn2ccc3cc(S(=O)(=O)N4CCCC4)ccc32)cc1OC	-6.9%

From PubChem
